Source: PubChem BioAssay (several laboratories)
HSV augment = increases HSV replication in cells; hit rate 0.005% among 220,000; maximum fold increase; HSV replication augmentation in cells, fold increase;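 active = peak rise of 1.5-fold or more in the series; tested in PC3 cells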;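 also: first round at 10 µM; read as green reporter fluorescence; hits show the peak of a series up to 25 µM; 1 = signal of infected wells without compound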
INS promoter inh = TRM-6 insulin promoter activity inhibition; TRM-6 cells (human fetal islet line), insulin promoter-eGFP reporter, imaging; reporter expression induced with tamoxifen; inhibition, % at 2 µM; hit rate 0.9% among 130,000;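 active = inhibition above the mean plus 3 SD, with well images judged a real hit on visual review, cut at about 60% in these data, passing the limit was not always enough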
RGS16-Gao = modulates binding between human RGS16 and Galphao. AID 1441. hit rate 0.38% among 220,000. bead-based flow cytometry RGS16-Galphao binding, fluorescence; actives lie on both sides. binding response (% of control), % at 10 µM. O15492+P09471;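 active = below 25% or above 175%, edge rows of some plates excepted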;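 also: Galphao activated by GDP with aluminum fluoride before binding; 100% = wells without compound and 0% = beads without RGS; some results beyond the cut were filed as inactive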
Target sequence (O15492 whole entry, looked up): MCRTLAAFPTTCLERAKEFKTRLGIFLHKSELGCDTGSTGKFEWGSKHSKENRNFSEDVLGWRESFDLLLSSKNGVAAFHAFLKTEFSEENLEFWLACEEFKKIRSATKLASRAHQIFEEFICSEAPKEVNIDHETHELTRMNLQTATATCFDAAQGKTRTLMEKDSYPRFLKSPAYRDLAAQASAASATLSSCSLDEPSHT
Target sequence (P09471 whole entry, looked up): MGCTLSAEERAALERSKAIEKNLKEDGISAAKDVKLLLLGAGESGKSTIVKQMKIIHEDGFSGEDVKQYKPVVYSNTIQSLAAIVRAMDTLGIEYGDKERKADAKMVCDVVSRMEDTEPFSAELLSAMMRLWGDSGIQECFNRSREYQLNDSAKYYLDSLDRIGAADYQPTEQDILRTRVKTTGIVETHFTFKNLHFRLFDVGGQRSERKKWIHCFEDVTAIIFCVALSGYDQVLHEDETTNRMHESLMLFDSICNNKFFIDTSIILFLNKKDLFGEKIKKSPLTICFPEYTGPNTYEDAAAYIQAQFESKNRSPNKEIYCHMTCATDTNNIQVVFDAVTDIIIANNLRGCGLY
PKD1 kinase inh = inhibitors of human PKD1 kinase; PKD1 kinase fluorescence polarization assay; inhibition, %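 (about 10 µM by stock and volumes)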; hit rate 0.056% among 200,000; AID 797;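 active = inhibition of 50% or more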;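 also: controls were vehicle for no effect and a reference inhibitor for full effect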
GALR2 agonist = agonists of human galanin receptor 2 (GALR2) | O43603 | GALR2-expressing cells, agonist activation read-out | activation, %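 (tested at 5 µM)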 | hit rate 0.48% among 140,000 | AID 803;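 active = above mean plus 3 SD of all compounds, about 5% in these data, not always enough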;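 also: 0% = vehicle buffer wells and 100% = reference agonist at full effect; tested in CHO reporter cells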
Target sequence (O43603 whole entry, looked up): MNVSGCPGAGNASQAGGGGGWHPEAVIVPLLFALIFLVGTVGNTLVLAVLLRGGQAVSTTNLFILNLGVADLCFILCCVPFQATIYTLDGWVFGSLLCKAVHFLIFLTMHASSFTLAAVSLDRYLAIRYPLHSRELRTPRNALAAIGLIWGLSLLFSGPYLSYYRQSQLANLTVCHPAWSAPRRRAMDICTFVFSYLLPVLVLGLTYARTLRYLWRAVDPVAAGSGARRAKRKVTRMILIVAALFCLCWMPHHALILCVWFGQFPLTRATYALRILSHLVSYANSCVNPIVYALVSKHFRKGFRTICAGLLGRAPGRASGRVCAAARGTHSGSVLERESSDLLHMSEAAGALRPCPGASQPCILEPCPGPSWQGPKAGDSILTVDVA
INS promoter inh cell count = further read-out of INS promoter inh, marked with its call; normalized cell count, %; measured here: cell count, toxicity; reference of the scale not given here;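 cells exposed to compound for 48 h; stained nuclei by imaging scaled within each plate; lower means fewer cells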
HSV augment primary fold = recorded beside HSV augment, whose call it bears; fold increase; compound at 10 µM; measured here: primary screen fold increase 10 uM; tested in PC3 cells;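 GFP signal in the first replicate; 1 = infected wells without compound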
An asterisk follows results filed as active; i = inactive; . = not tested or not shown.

SMILES	HSV augment	HSV augment primary fold	INS promoter inh	INS promoter inh cell count	RGS16-Gao	PKD1 kinase inh	GALR2 agonist
N#C/C(=C\c1c(N2CCC(C(N)=O)CC2)nc2ccccn2c1=O)S(=O)(=O)c1ccc(Cl)cc1	i	1.36	.	.	100.8	.	.
OC1CCCN(CC(O)c2ccccc2)C1 (stereo not given)	i	0.94	0.0	122.7	103.0	1.0	.
COc1ccc(CCN2C(=O)CC(NNc3ccc([N+](=O)[O-])cc3)C2=O)cc1OC (stereo not given)	i	1.17	.	.	103.3	-4.7	.
O=C(NCC(=O)N(c1cnc2ccccc2c1)C(C(=O)NC1CCCC1)c1ccncc1)c1ccco1 (stereo not given)	.	.	19.4	87.5	104.4	-0.8	-0.3
COc1ccc(C2C(C(=O)N3CCCC3)c3cc(OC)c(OC)cc3C(=O)N2C)cc1 (stereo not given)	i	1.1	-57.1	99.3	101.0	5.1	0.6
Fc1ccc(-c2cn(-c3ccccc3)c3[n+]2CCS3)cc1	i	1.17	.	.	101.2	.	.
CC(=O)C1=C(O)C(=O)N(C)C1c1ccccc1F (stereo not given)	i	1.01	.	.	113.4	-1.1	-2.8
CC(C)NS(=O)(=O)c1ccc(OCC(=O)NCc2ccccc2)cc1	i	0.95	14.3	65.2	124.9	-3.0	-1.8
Cc1cc(C)n(-c2cc(N3CCN(S(=O)(=O)c4ccc(Br)cc4)CC3)ccc2[N+](=O)[O-])n1	i	0.97	-23.1	136.2	98.2	16.3	0.4
Cc1ccccc1CC1(CO)CCCN(Cc2c(C)nn(C)c2Cl)C1 (stereo not given)	i	0.98	-23.8	72.3	102.5	0.4	.
Cc1nc2ccccn2c1C(=O)N/N=C/c1ccc([N+](=O)[O-])o1	i	0.85	-76.9	107.9	70.0	4.0	.
CCc1c(C)c(C#N)c2nc3ccccc3n2c1-n1nc(C)cc1C	i	1	-55.6	110.6	94.8	-8.4	-1.0
CCCn1cnc2sc(C(N)=O)c(C)c2c1=O	i	1.08	8.1	102.2	108.3	-1.0	1.0
CC(=O)Nc1ccc(S(=O)(=O)NCCSc2ccccn2)cc1	i	1.03	7.1	67.2	107.3	-1.3	-0.4
CN1C[C@@H]2C(c3ccc(C(F)(F)F)cc3)C3(c4ccc(C#N)cc4)CC2(C3)[C@H]1c1ccccc1 (stereo not given in full)	i	1.02	.	.	94.9	.	.
Cc1cccc2nc(CSc3nc4[nH]ncc4c(=O)n3-c3cccc(Cl)c3)cc(=O)n12	i	0.71	-16.7	98.4	102.5	5.4	1.3
COC(=O)c1ccc(/C=C/C(=O)c2ccc(OC)c(OC)c2)cc1	i	0.93	0.0	104.1	100.1	-0.3	-1.2
COc1ccc(CCNC(=O)c2nonc2N)cc1OC	i	0.82	.	.	101.6	-8.1	-1.9
N#Cc1cccc(NC(=O)CSc2nnc(-c3n[nH]c4ccccc34)o2)c1	i	0.97	-11.8	110.8	100.9	23.6	.
CN(C)S(=O)(=O)Oc1ccsc1C(=O)Nc1ccc(Cl)c(Cl)c1	i	1.26	-80.0	64.9	116.1	-2.7	-0.3
O=C(Oc1ccc2c(c1)OCO2)c1ccc(F)cc1Cl	i	0.96	.	.	99.3	-6.7	-2.0
CCn1cnc2scc(-c3ccc(C)c(C)c3)c2c1=O	i	0.74	.	.	101.6	0.7	.
COc1ccc(C(C)=O)cc1CSc1nnc(Nc2c(C)cccc2C)s1	i	0.81	-17.5	121.1	92.8	-6.6	-0.5
CC(C)C(C)(C#N)NC(=O)CSc1nc2scc(-c3ccco3)c2c(=O)n1-c1ccccc1 (stereo not given)	i	1.08	.	.	95.5	-20.4	-1.6
CCc1nnc(NC(=O)C2CCC(CNc3c(N4CCC(C)CC4)c(=O)c3=O)CC2)s1 (stereo not given)	i	0.88	.	.	102.5	.	.
CCCCOc1ccccc1NC(=O)c1ccco1	i	1.02	-95.5	60.7	100.4	-3.1	-0.8
COCC(C)n1c(C)cc(C(=O)COC(=O)CNC(=O)c2ccccc2)c1C (stereo not given)	i	0.86	.	.	102.5	-14.8	-0.3
CCN(CC)S(=O)(=O)c1cccc(C(=O)N/N=C/c2ccc([N+](=O)[O-])o2)c1	i	0.84	.	.	104.8	-1.5	.
C=CCNC(=O)CSc1nnc(-c2ccccn2)n1Cc1ccccc1	i	1.01	.	.	99.1	-7.2	.
Cc1cc(-c2nnc(-c3cccc(Cl)c3)o2)no1	i	1.11	.	.	99.1	.	.
CCCNC(=O)NCCc1ccncc1	i	0.84	-13.3	90.1	99.4	-2.3	-1.0
CCN(CC)C(=O)N1CCn2c(nc3ccccc32)C1	i	0.96	-153.8	76.4	102.0	2.9	-2.1
CCc1cccc2c(C(=O)CSc3nnc(-c4ccoc4C)n3C)c[nH]c12	i	0.84	-26.3	67.1	96.2	-7.0	-0.9
O=C1c2oc3ccccc3c(=O)c2C(c2cccc(F)c2)N1CCCO (stereo not given)	i	0.78	.	.	95.2	-6.7	0.5
O=C(NC(=S)NCCO)c1sc2ccccc2c1Cl	i	0.95	44.2	53.2	100.2	-1.0	.
COc1cccc(C2CC(c3cccs3)=NN2S(C)(=O)=O)c1 (stereo not given)	i	1.07	-57.1	100.4	94.7	-1.8	.
CN(C)c1ccnc2sc3c(SCc4ccc(Cl)cc4)ncnc3c12	i	0.96	.	.	112.5	-0.7	-0.1
CCC(Sc1ncccc1C(=O)OC(C)C)C(=O)N1CCOCC1 (stereo not given)	i	0.96	-60.0	54.2	103.8	0.8	-1.8
COCCNC(=O)C(c1ccc(C)cc1)N(C(=O)CCC(=O)Nc1ccccn1)C1CCCC1 (stereo not given)	.	.	.	.	.	9.9	-2.1
O=C(CSc1nccn1-c1ccccc1)NO	i	1.02	.	.	95.0	3.6	.
Cc1cccc(NC(=O)CCN2C(=O)C3C4C=CC(C4)C3C2=O)c1 (stereo not given)	i	1.05	14.3	105.0	102.0	4.6	-0.2
COc1ccc(C(=O)NNC(=O)c2snnc2C)cc1	i	1.06	.	.	106.2	.	.
Cc1ccc(CNC(=O)CSc2nc(C)cs2)cc1	i	0.9	.	.	101.5	1.9	.
Cc1ccc(N2C(=O)CC(Sc3ncn[nH]3)C2=O)cc1C (stereo not given)	i	0.97	60.0	102.8	101.7	-2.7	-2.8
O=C(Nc1nnc(SCc2ccc(F)cc2)s1)C1CC(=O)N(c2ccc3c(c2)OCCO3)C1 (stereo not given)	i	0.98	-41.9	109.9	106.9	-6.3	-1.4
O=C(Nc1nnc(-c2cccs2)o1)C1CC1	.	.	.	.	99.3	9.1	.
Cc1onc(-c2ccc(Cl)cc2Cl)c1-c1csc(N/N=C/c2ccccc2Cl)n1	i	0.95	.	.	86.1	.	.
CCOC(=O)C1CCN(c2cc(=O)n(Cc3ccc(F)cc3)c(=O)[nH]2)CC1	i	1.03	.	.	106.8	-5.7	-1.2
O=C(CCl)Nc1cccc(Oc2ccccc2)c1	i	0.96	66.7	115.0	108.5	-4.6	.
Cc1cccc(-c2nc(=S)c3c(o2)CCCC3)c1	i	0.94	-221.4	54.2	102.9	-8.3	-2.7
c1ccc2c(c1)N1CCCN=C1N2CCN1CCCCC1	i	1.01	-77.8	123.9	107.2	-4.0	.
CC(C)CNc1cc(N2CCCC2)ccc1[N+](=O)[O-]	i	0.94	-4.2	50.9	102.0	-6.9	-0.7
NC(=O)c1ccc(NC(=O)CSC2=Nc3ccccc3C3CC=NN23)cc1 (stereo not given)	i	0.54	46.7	89.0	100.8	0.9	-1.6
CC1(/[N+]([O-])=C/c2ccc(Cl)cc2Cl)CCCCC1=O (stereo not given)	i	1.03	.	.	103.8	.	.
CCOc1ccc2nc(NC(=O)CSc3nc(-c4ccccc4)c(C#N)c(=O)[nH]3)sc2c1	i	0.97	.	.	98.6	5.1	.
Cc1c(Cl)cccc1NC(=O)Cc1ccc([N+](=O)[O-])cc1	i	0.93	-33.3	98.1	90.9	-0.2	.
CNC(=O)c1cc2cc(Cc3ccccc3Cl)ccc2oc1=O	i	0.91	.	.	99.5	-2.4	.
Cc1cc(C)c(S(=O)(=O)n2cnc3ccccc32)c(C)c1	i	0.85	9.6	112.5	79.6	-5.2	0.1
Cc1scc(C(=O)N/N=C/c2ccc(OC(C)C)cc2)c1C	i	0.69	-31.0	100.0	100.2	-4.1	-2.7
O=C(CCS(=O)(=O)c1cccc2nsnc12)NC1CCCCCC1	i	1.01	-21.1	122.2	89.4	-6.8	-1.8

The closing 2 compounds of the part before open the next one:
SMILES	HSV augment	HSV augment primary fold	INS promoter inh	INS promoter inh cell count	RGS16-Gao	PKD1 kinase inh	GALR2 agonist
Cc1scc(C(=O)N/N=C/c2ccc(OC(C)C)cc2)c1C	i	0.69	-31.0	100.0	100.2	-4.1	-2.7
O=C(CCS(=O)(=O)c1cccc2nsnc12)NC1CCCCCC1	i	1.01	-21.1	122.2	89.4	-6.8	-1.8
O=C(CSc1ccc2nnc(-c3ccccn3)n2n1)NCc1ccc2c(c1)OCO2	.	.	.	.	104.9	-6.3	-3.5
O=C(/C=C/c1cn(-c2ccccc2)nc1-c1cccc(Cl)c1)N1CCN(c2ccccn2)CC1	i	0.88	.	.	102.4	-2.1	.
CC(C)CN(CC(C)C)c1nnc(NC(=O)Cn2c(=O)oc3ccccc32)s1	i	0.85	.	.	58.0	-4.1	-0.9
Cc1cc(C)c2ccc(=O)n(CC(=O)N/N=C/c3ccccc3Cl)c2n1	i	0.85	.	.	109.5	.	.
Cc1c(N=C2NN=C(c3ccc(Cl)cc3)CS2)c(=O)n(-c2ccccc2)n1C	i	0.93	.	.	101.5	1.5	.
CCOC(=O)n1c(=O)n(Cc2ccc(Cl)cc2Cl)c2ccccc21	i	1.04	12.9	69.2	101.4	-4.3	-3.7
O=C(COc1ccccc1)Nc1ccc(Cl)cn1	i	1	11.1	112.5	102.9	-6.9	.
CN(C)C(=O)C1Cc2ccccc2CN1S(=O)(=O)c1cccs1 (stereo not given)	i	1.14	11.1	115.5	98.4	5.8	.
O=S(=O)(Cc1cc(Cl)nc(-c2ccccc2)n1)c1ccccc1	i	0.98	.	.	105.6	8.2	-2.1
Cc1cc(N2CCOCC2)ccc1/C=C1\NC(=O)N(Cc2ccccc2F)C1=O	i	0.92	.	.	102.3	6.3	.

Quoted at random: six records from the list, in no set order.
SMILES	HSV augment	HSV augment primary fold	INS promoter inh	INS promoter inh cell count	RGS16-Gao	PKD1 kinase inh	GALR2 agonist
O=C(Nc1nnc(SCc2ccc(F)cc2)s1)C1CC(=O)N(c2ccc3c(c2)OCCO3)C1 (stereo not given)	i	0.98	-41.9	109.9	106.9	-6.3	-1.4
O=C(CSc1ccc2nnc(-c3ccccn3)n2n1)NCc1ccc2c(c1)OCO2	.	.	.	.	104.9	-6.3	-3.5
Cc1onc(-c2ccc(Cl)cc2Cl)c1-c1csc(N/N=C/c2ccccc2Cl)n1	i	0.95	.	.	86.1	.	.
CCC(Sc1ncccc1C(=O)OC(C)C)C(=O)N1CCOCC1 (stereo not given)	i	0.96	-60.0	54.2	103.8	0.8	-1.8
Cc1cc(C)c(S(=O)(=O)n2cnc3ccccc32)c(C)c1	i	0.85	9.6	112.5	79.6	-5.2	0.1
COc1ccc(C(C)=O)cc1CSc1nnc(Nc2c(C)cccc2C)s1	i	0.81	-17.5	121.1	92.8	-6.6	-0.5
